CtBP-E1A inh: CtBP/E1A binding inhibition. AlphaScreen GST-E1A/His-CtBP binding, 1536-well; stronger effect = lower value; control for the full effect not named in the record. activity change, % (concentration not given with the values). 340,000 tested, 0.49% active; in the data active means activity change below about -65%; inconclusive means about -30% to -65%; inactive means above about -30%; further: on the % scale 0 is the no-effect control and ±100 the full control effect
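GST-E1A and His-tagged CtBP (125 nM each as 5X stock) were preincubated with pin-transferred compound for 2 h at 37 °C in the dark, then glutathione donor and nickel acceptor beads were added for 1 h before AlphaScreen reading.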
D2 potentiator: positive allosteric modulators of human D2 dopamine receptor. AID 624464. potentiation, % (concentration not given with the values). P14416. 360,000 tested, 0.23% active. DiscoveRx D2 beta-arrestin cells, luminescence, 90 min; 100% = 57 uM dopamine signal; active = potentiation of 50% or more; inconclusive = 30% to 50%; inactive = 30% or less;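 further: compound concentration not given in the record; tested on top of an EC20 dose of dopamine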
Target sequence (P14416 whole entry, looked up): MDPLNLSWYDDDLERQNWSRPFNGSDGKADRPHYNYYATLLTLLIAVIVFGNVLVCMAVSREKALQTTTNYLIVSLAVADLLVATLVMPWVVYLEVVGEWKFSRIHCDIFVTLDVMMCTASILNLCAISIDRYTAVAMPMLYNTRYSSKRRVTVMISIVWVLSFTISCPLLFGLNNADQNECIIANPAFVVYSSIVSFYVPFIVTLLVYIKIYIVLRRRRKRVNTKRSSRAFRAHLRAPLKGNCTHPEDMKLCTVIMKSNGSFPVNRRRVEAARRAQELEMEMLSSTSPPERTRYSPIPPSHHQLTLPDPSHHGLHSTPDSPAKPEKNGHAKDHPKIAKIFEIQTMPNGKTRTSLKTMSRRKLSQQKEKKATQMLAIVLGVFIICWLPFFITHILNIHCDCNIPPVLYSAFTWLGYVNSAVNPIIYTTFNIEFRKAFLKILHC
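PathHunter D2 cells, attached overnight at 37 deg C, received compound in DMSO plus dopamine at EC20 (50 nM final) for 90 min at 37 deg C. Beta-arrestin recruitment was read as luminescence after 1 h with detection reagent at ambient temperature.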
PINK1 expr mod: PINK1 expression modulation | PINK1 immunofluorescence, high-content cytometry, 24 h | Potency, µM (doses to about 76.6 µM), without a hit: top-dose activation (PINK1 increase), most hits filed as activators | 410,000 tested, 0.2% active; active = well fitted activation curve with a large enough effect; inconclusive = small, poorly fitted or top-dose-only effect; inactive = flat fitted curve, though single readings scatter; cell line not stated here;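 further: potency means the concentration at half of the fitted maximal effect; % of control where 0% means no effect; nearly all actives have a fitted effect of over 65% in size; a mitochondrial uncoupler was the plate control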
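PINK1 protein level read as immunofluorescence by microplate cytometer in a fixed, stained stable cell line after 24 h exposure to five compound concentrations, with CCCP as control.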
D2 agonist: agonists of human D2 dopamine receptor (beta-arrestin); DiscoveRx PathHunter D2 beta-arrestin, luminescence, 90 min; 100% = 57 uM dopamine signal; AID 624465; 360,000 tested, 0.084% active; P14416; activation, % (concentration not given with the values); in the data active = activation above about 40%; inconclusive = about 15% to 40%; inactive = below about 15%; further: compound concentration not given in the record; the text of the record calls up to 30% inactive
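Agonist mode: compounds alone added to overnight-plated D2 PathHunter cells for 90 min at 37 C, with 57 uM final dopamine (EC100) defining full response. Beta-arrestin recruitment detected by chemiluminescent reagent, read after 1 h at ambient temperature.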
TRPML1 ag: human mucolipin-1 channel agonism; 410,000 tested, 0.12% active; TRPML1-expressing cells, Ca2+ dye fluorescence, FDSS; host cell line not named in the record; reference of the full effect not given here; activation, % (concentration not given with the values); in the data active = activation above about 50%; inconclusive = about 30% to 50%; inactive = below about 30%; further: 0% is about no effect; the text of the record puts the active cut at 80%
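In this qHTS format, compounds were pin-transferred onto Ca8-dye-loaded TRPML1-DL cells induced with Tet overnight, and intracellular Ca2+ fluorescence was recorded kinetically for 110 s after a 10 s baseline. A subsequent 4uM final 54-4 (EC80) addition followed by a second 110 s read served as the antagonist phase.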
Six1-Eya2 inh: blocks human Six1 binding to Eya2; Q15475+O00167; AlphaScreen GST-Six1/His-Eya2 binding, biochemical; stronger effect = lower value; control for the full effect not named in the record; activity change, % (test concentration not listed); 360,000 tested, 0.56% active; AID 651725; in the data active = activity change below about -65%; inconclusive = about -30% to -65%; inactive = above about -30%; further: on the % scale 0 is the no-effect control and ±100 the full control effect; compound concentration not given in the record
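AlphaScreen luminescence read after one hour at 37 °C in darkness. Pin-transferred compounds met GST-Six1 and His-Eya2 protein (5X stock 250 nM/500 nM) plus glutathione donor and Ni-chelate acceptor beads (5X, 50 ug/mL).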
Numbers without * were called inactive; ? = inconclusive; nt = no result given; [ ] = another dose, or the depositor's remark. Random draw from the library; about 1.3% have a hit in one of these screens.

Structure	CtBP-E1A inh	D2 potentiator	PINK1 expr mod	D2 agonist	TRPML1 ag	Six1-Eya2 inh
Cn1nc(C(C)(C)C)cc1NC(=O)C1(C)CCN1C(=O)C1(c2ccccc2)CC1 (stereo unspecified)	0	-5	0.6%	-0.5	-0.7	-1
CC(=O)c1cccc(NC(=O)NCCc2c[nH]c3ccccc23)c1	-5	-10	-0.2%	-1.2	-0.2	-8
CCCCN(C)C(=O)Cn1nc(-c2ccc(Cl)cc2)ccc1=O	0	-8	1.7%	-2.9	-0.9	-4
O=C(CC(c1ccccc1)c1ccccc1)Nc1ncn[nH]1	?	5	-0.8%	-2.3	0.3	?
Cc1c(/C=N/NC(=O)c2cccnc2)c2ccccc2n1Cc1ccccc1	4	-11	?	-1.1	-0.7	-3
O=C1CC(Nc2ccc(N3CCOCC3)cc2)C(=O)N1c1ccccc1 (stereo unspecified)	-1	10	2.0%[38.3 µM]	-0.1	0.3	0
Cc1csc(=O)n1CCC(=O)OCc1nnc(-c2ccccc2)o1	5	-2	1.9%	0.1	-0.9	0
CN(C(=O)c1cccc(NC(=O)Cc2ccc(NC(=O)C3CCN(S(=O)(=O)c4cccc([N+](=O)[O-])c4)CC3)cc2)c1)C1CCCCC1	2	9	1.6%	6.8	-0.8	4
CC(C)c1ccc(CN2CCN(C(=O)CSc3nnnn3C3CC3)CC2)cc1	-3	-15	1.2%	-1.5	0.9	-4
O=C(NCc1ccccc1F)C1CCCN(C(=O)Nc2ccccc2)C1 (stereo unspecified)	11	-8	2.0%	0.1	-0.6	-6
COc1ccc(Br)cc1C1N2CC3(C)CN1CC(C)(C2)C3=O (stereo unspecified)	3	-1	0.5%	-2.9	-0.1	-1
Cn1c(C(=O)N2CCC(C(N)=O)CC2)cc2cc(Cl)ccc21	-2	0	-0.3%	5.3	0.5	-3
O=[N+]([O-])c1ccc(Nc2nc(N/N=C/c3cccc(F)c3)nc(N3CCCC3)n2)cc1	-23	-12	?	0.9	0.3	-14
COc1cc(/C=C2\SC(=S)N(NC(=O)c3ccc(O)cc3)C2=O)ccc1O	-24	-11	0.9%	-1.3	?	-28
Cn1cnc([N+](=O)[O-])c1Sc1ccccc1	-2	-8	0.8%	-3.7	-0.6	0
O=C(CSc1nc2ccccc2c(=O)n1-c1ccc(F)cc1)NC1CC1	8	-2	-1.2%	1.1	-0.4	2
CC(C)COc1ccc(C(=O)NC(=S)Nc2ccc(CN3CCOCC3)cc2)cc1	3	-15	5.5%	-2.4	0.1	3
O=C(O)c1ccccc1C(=O)c1cccs1	8	-16	-1.8%	-1.2	-0.7	-5
Cc1ccc(S(=O)(=O)NCC(=O)N/N=C/c2ccc(Cl)cc2Cl)cc1	5	-11	0.4%	-0.5	0.2	-3
CCn1c(C)c(C(C)=O)c(N2CCN(c3ccccn3)CC2)nc1=S	4	-1	9.2%[38.3 µM]	-2.3	0.0	-2
COCCNC(=O)C1(C)CCCN(Cc2cc(-c3ccccc3)n(C)n2)C1 (stereo unspecified)	9	-11	2.5%	-1.6	-0.5	5
CC(=O)OC[C@H]1O[C@@H](Sc2cccc3cccnc23)[C@H](OC(C)=O)[C@@H](OC(C)=O)[C@@H]1OC(C)=O	-4	-10	0.2%	-3.6	0.3	6
CC(C)(C)C1CCc2c(sc(N)c2C(N)=O)C1 (stereo unspecified)	5	-2	0.4%	2.0	-0.5	1
CC1(C)CC(=O)C2=C(C1)NC(=O)CC2c1cccc(F)c1 (stereo unspecified)	5	-13	-0.6%	-1.4	1.6	-4
Cc1ccc(/C=C2\CCC3=C2OC(N)=C(C#N)C3c2ccc(C)cc2)cc1 (stereo unspecified)	7	7	?	-3.3	?	1
CCOc1ccc(-n2nnc3c(=O)n(C/C=C/c4ccccc4)cnc32)cc1	2	-9	6.0%	-6.1	1.6	2
CC(=O)C(C(c1ccccc1)N1CCOCC1)N1CCOCC1 (stereo unspecified)	-11	-6	-0.3%	-7.2	-0.8	7
O=C(O)c1ccc(Cl)c(S(=O)(=O)N2CCCCCC2)c1	9	7	nt	2.8	0.5	8
CCOc1cc(N2CCOCC2)c(OCC)cc1NC(=O)COC(=O)c1ccc(Cl)cc1N	-10	-2	11%	-1.1	0.1	-1
Cn1c(=O)[nH]c(=O)c2c1nc(NCCCO)n2CCOc1ccccc1	2	-1	0.7%	-6.9	0.0	-1
COc1ccc[nH]c1=O	20	-10	-4.0%[38.3 µM]	-1.0	-0.3	0
O=NC1=C(c2c(O)[nH]c3ccccc23)CCCC1	6	12	nt	-3.6	0.3	1
CCOC(=O)C1CCN(C(=O)CN2C(=O)c3cccnc3Oc3ccccc32)CC1	-20	-11	-1.6%	-3.6	-0.3	-1
CC(C)CC(c1nnnn1C(C)C)N1CCN(c2ccccc2)CC1 (stereo unspecified)	4	-4	0.0%	-2.2	1.4	0
COc1cc(NC(=O)CN2CCCCCC2)cc(OC)c1	12	-14	2.7%	-3.8	-0.5	7
CCC(=O)N1CCc2cc(S(=O)(=O)NCCCN(CC)Cc3ccccc3)ccc21	0	-10	-2.2%	-3.7	-0.8	18
O=C(CN1C(=O)S/C(=C/c2cc(Br)cs2)C1=O)N1CCOCC1	0	-2	8.2%	1.2	1.1	5
Cc1cc(NC(=O)CSc2nc(C(C)C)nc3sc4c(c23)CCCC4)no1	12	3	2.4%[38.3 µM]	-2.3	0.6	3
c1ccc(-c2cnnc(N3CCCCC3)n2)cc1	3	-18	-1.0%	-1.7	0.0	-4
CCOC(=O)c1c(C)[nH]c(C(=O)CN2CC(C)OC(C)C2)c1C (stereo unspecified)	7	-8	nt	0.8	0.2	-3
COc1ccccc1C(C)NC(=O)CCOc1cccc(C)c1 (stereo unspecified)	0	1	0.8%	-1.0	-0.3	24
CCCCN(C(=O)c1cc2c(s1)CCC2)c1c(N)n(CC(C)C)c(=O)[nH]c1=O	5	1	1.1%	-1.4	1.0	-5
O=S(=O)(c1ccc(F)cc1)N1CCN(C(=S)NCCc2ccccc2)CC1	0	-13	6.3%	0.1	1.1	-4
COc1ccc(OC)c(NC(=O)CS(=O)(=O)c2cn(CC(=O)N3CCOCC3)c3ccccc23)c1	-1	-4	1.5%	4.7	-0.5	5
CCOc1cc(S(=O)(=O)NCC2CCCO2)ccc1F (stereo unspecified)	1	-4	0.3%	1.8	0.0	-2
Cc1cc(C)c(NC(=O)c2cc(C(=O)O)ccc2C(=O)O)c([N+](=O)[O-])c1	0	-11	0.3%	-8.5	-0.4	-11
CCOc1c(S(=O)(=O)NC2CC(C)(C)NC(C)(C)C2)ccc(Cl)c1Cl	2	-6	-2.2%	-3.0	0.6	6
CCCn1c(SC(C(=O)Nc2cc(C)ccc2OC)c2ccccc2)nc2ccccc2c1=O (stereo unspecified)	-2	-18	3.9%	-1.1	2.1	-3

Next section, overlapping the part above by 4 compounds.
Structure	CtBP-E1A inh	D2 potentiator	PINK1 expr mod	D2 agonist	TRPML1 ag	Six1-Eya2 inh
CCOc1cc(S(=O)(=O)NCC2CCCO2)ccc1F (stereo unspecified)	1	-4	0.3%	1.8	0.0	-2
Cc1cc(C)c(NC(=O)c2cc(C(=O)O)ccc2C(=O)O)c([N+](=O)[O-])c1	0	-11	0.3%	-8.5	-0.4	-11
CCOc1c(S(=O)(=O)NC2CC(C)(C)NC(C)(C)C2)ccc(Cl)c1Cl	2	-6	-2.2%	-3.0	0.6	6
CCCn1c(SC(C(=O)Nc2cc(C)ccc2OC)c2ccccc2)nc2ccccc2c1=O (stereo unspecified)	-2	-18	3.9%	-1.1	2.1	-3
CC(OC(=O)c1cc(=O)[nH]c2ccccc12)C(=O)c1ccccc1 (stereo unspecified)	-11	4	-1.4%	-2.2	1.5	-2
Cc1ccc(CNC(=O)CN(C(=O)C2(C)CC(=O)N=C3C=CC=CN32)c2ccccc2)cc1 (stereo unspecified)	-1	-10	4.5%	-7.5	-1.1	1
Cc1ccc(N2CCN(CCc3nc4cc(NS(C)(=O)=O)ccc4n3C)CC2)cc1	-9	-36	-0.5%	0.4	0.3	3
Cc1ccc(C(=O)NCC(=O)NCC(c2cccs2)N2CCOCC2)cc1 (stereo unspecified)	-5	-2	1.8%	-0.5	-0.2	0
COc1ccc(NC(=O)CSc2nnc3n2CCCCC3)cc1OC	-18	-10	-0.6%	-2.8	0.4	-12
COc1ccccc1C(=O)OCCNC(=O)Cn1cnc2c1c(=O)n(C)c(=O)n2C	20	-1	1.4%	-0.8	1.4	15
COc1cc(/C=C/C(=O)OCC(=O)Nc2ccc3[nH]c(=O)[nH]c3c2)ccc1OC(F)F	-5	7	0.4%	-0.3	-0.8	-4
COc1ccc([N+](=O)[O-])cc1NC(=O)c1cn(-c2ccc(C)c(C)c2)c(=O)c2ccccc12	-4	2	0.0%	1.1	0.6	0
Cc1ccc(NC(=O)c2nnn(-c3cc(C)cc(C)c3)c2N)cc1	6	12	-1.2%	0.4	5.8	4
O=C(O)c1ccc(-n2nnnc2Oc2cccc3cccnc23)cc1	5	-2	-2.7%[38.3 µM]	-1.5	0.9	5
C=CCNc1nc(N)c([N+](=O)[O-])c(NC2CCCCC2)n1	-26	-13	-0.3%	2.0	2.1	-6
N#Cc1c(SCC(=O)Nc2cccc(C(F)(F)F)c2)sc2c(O)cc(=O)[nH]c12	5	0	1.2%	-1.4	0.4	-13
COc1ccc(N(CC(=O)NC2CCCCC2)C(=O)CCC(=O)Nc2nc(C)cs2)cc1OC	3	-3	-1.1%	-2.1	0.4	7
CCOc1ccc(NC2=NCC(=O)N2Cc2cccs2)cc1	-1	?	0.0%	-1.8	1.6	-6
COc1ccc(C(=O)c2c[nH]c(C(=O)NCCCn3ccnc3)c2)cc1	-10	-22	-0.1%	-1.9	-1.0	-1
CC(=O)OCC(=O)NCc1ccc2c(c1)OCO2	4	-23	-2.9%	-4.1	-0.2	2
